Screening results from PubChem.
FGF22 binding – binders of human FGF22 protein, primary screen, FGF22 synaptogenesis inhibitor project, biophysical, thermal shift, single point; Fibroblast growth factor 22 (Homo sapiens), Q9HCT0; recombinant FGF22 thermal shift, SYPRO orange fluorescence; percent of sucrose octasulfate shift, DMSO zero; calls only at 9.99 µM; 340,000 tested, 1.5% active; AID 651658, 2012;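 active = melting point raised past a set limit in the mean and every replicate; inconclusive = no clear call; three in four hits are not shown here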
Ecoli growth – E. coli growth inhibition, primary screen, OD600. Escherichia coli growth, 23 h; active compounds read low. OD600 absorbance (test concentration not listed). 330,000 tested, 0.21% active. AID 1053175, 2014;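 active = OD600 absorbance below the run mean of sample wells minus 3.6 SD, in any replicate, cut at about 0.56 in these data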;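 also: stock transfer was 300 nL into about 60 µL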
MLL AF4-AF9 inh – inhibitors of AF4 peptide binding to AF9, primary screen, biochemical, AlphaScreen, biotin-AF4 peptide, FLAG-AF9, single point; inhibition, % at 10 µM; 350,000 tested, 0.47% active;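 active = every replicate reaching a set inhibition limit, whatever the replicate mean, cut at about 25% in these data; inconclusive = mean inhibition reaches that limit but some replicates miss it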;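 also: 0% = plate neutral control median and 100% = total signal loss; the record names both 10 and 1 µM as test concentration; the first replicate is given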
Target sequence (P42568 whole entry, looked up): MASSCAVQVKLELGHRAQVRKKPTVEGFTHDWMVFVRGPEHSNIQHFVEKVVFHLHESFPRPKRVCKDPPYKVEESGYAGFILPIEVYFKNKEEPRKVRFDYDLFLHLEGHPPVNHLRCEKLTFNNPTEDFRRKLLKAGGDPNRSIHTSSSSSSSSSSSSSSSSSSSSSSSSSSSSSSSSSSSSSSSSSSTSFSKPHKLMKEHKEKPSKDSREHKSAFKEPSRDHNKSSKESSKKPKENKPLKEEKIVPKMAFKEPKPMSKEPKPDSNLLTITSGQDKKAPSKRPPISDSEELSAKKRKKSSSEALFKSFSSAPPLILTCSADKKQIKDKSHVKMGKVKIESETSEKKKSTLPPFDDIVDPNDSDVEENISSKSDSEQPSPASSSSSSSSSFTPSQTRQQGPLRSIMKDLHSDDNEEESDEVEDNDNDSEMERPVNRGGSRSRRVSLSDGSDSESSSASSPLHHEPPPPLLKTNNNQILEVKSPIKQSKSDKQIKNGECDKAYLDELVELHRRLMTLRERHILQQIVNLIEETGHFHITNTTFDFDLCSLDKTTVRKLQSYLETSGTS
Ecoli rRNA inh – reduced GFP signal of wild-type E. coli, primary screen, bacterial rRNA inhibitor project, GFP/RFP fluorescence, OD600, single point; GFP signal change (wild-type ribosome), % (no concentration beside the values); E. coli WT GFP vs humanized-ribosome RFP mutants, 24 h; active compounds read low; DMSO median 0, no signal -100; 350,000 tested, 1.6% active;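 active = significant combined selectivity score with lowered wild-type GFP, culture density cut under 30%, mutant RFP and density less affected; inactive = any of these conditions unmet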; also: one replicate is shown; some compounds called inactive have numbers as strong as hits
ALR H2O2 inh – inhibitors of human ALR sulfhydryl oxidase, primary screen, biochemical, H2O2 detection, HRP-luminol luminescence, single point; FAD-linked sulfhydryl oxidase ALR (Homo sapiens), P55789; purified ALR, DTT oxidation; inhibition, % (no concentration beside the values); 290,000 tested, 3.8% active; AID 485317, 2010;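 active = mean and each replicate at 75% or more; inconclusive = only one of the two met; inactive = neither met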;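 also: stock transfer was 7.5 nL into about 7.5 µL; 0% = neutral wells and 100% = wells with inactivated enzyme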
HNF4A DNA FP – change in binding of human HNF4A to DNA, primary screen, biochemical, fluorescence polarization, FITC-DNA; 1 h; Hepatocyte nuclear factor 4-alpha (Homo sapiens), P41235; 360,000 tested, 0.3% active; activity change, % at 10 µM; in the data active = activity change above about 30%, passing the limit was not always enough;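 also: controls were the assay level and a saturating level of protein; the project sought stronger binding though the title names inhibitors; some compounds called inactive have numbers as strong as hits; positive values seem to mean higher polarization but the record does not say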
Target sequence (P41235 whole entry, looked up): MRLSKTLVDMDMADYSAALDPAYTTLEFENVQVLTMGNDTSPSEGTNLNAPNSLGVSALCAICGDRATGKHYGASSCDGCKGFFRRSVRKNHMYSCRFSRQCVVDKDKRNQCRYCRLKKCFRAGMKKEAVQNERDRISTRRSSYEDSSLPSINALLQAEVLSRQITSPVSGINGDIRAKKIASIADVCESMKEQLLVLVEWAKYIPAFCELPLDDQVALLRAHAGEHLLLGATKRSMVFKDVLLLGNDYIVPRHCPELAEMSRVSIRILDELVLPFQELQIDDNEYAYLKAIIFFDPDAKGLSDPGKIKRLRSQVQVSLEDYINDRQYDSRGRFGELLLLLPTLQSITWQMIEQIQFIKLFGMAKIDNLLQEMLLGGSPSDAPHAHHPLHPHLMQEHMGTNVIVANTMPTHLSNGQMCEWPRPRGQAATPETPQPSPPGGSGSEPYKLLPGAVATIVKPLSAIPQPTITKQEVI
Vif A3G – inhibitors of Vif binding to APOBEC3G peptide, primary screen, biochemical, TR-FRET, GST-Vif 1-94, biotin-A3G peptide, dose response retest (AID 1117319). Virion infectivity factor (Human immunodeficiency virus type 1 group M subtype B (isolate …. TR-FRET GST-Vif / biotin-A3G peptide binding; higher % means a stronger effect; test concentration not given here; strong numbers were not always called active. one-dose inhibition, %; IC50 in µM for titrated hits. 260,000 tested, 0.57% active;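 active = above the screen mean plus three standard deviations and confirmed in dose response; inconclusive = results disagree or hit not tested in dose response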;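 also: Vif residues 1-94 fused to GST binding biotinylated APOBEC3G peptide 110-148; 0% = full assay without inhibitor and 100% = GST in place of GST-Vif; retest series ran down from 100 µM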
Ecoli rRNA inh OD600 – further read-out of Ecoli rRNA inh, marked with its call; OD600 change, %; measured here: OD600 growth;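 optical density of the mix in the first replicate; 0 = DMSO median and -100 = no signal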
Ecoli rRNA inh RFP – recorded beside Ecoli rRNA inh, whose call it bears; RFP signal change, %; measured here: RFP humanized mutant strains;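 first replicate; 0 = DMSO median and -100 = no signal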
* = called active by the depositor; i = inactive; ? = inconclusive; / = no result given; & = joins results of further samples. Not all compounds are listed; the hit share may differ from the screen's.

SMILES | FGF22 binding | Ecoli growth | MLL AF4-AF9 inh | Ecoli rRNA inh | Ecoli rRNA inh OD600 | Ecoli rRNA inh RFP | ALR H2O2 inh | HNF4A DNA FP | Vif A3G
O=C(C[C@H]1C[C@H]2c3cc(NC(=O)Nc4ccc(C(F)(F)F)cc4)ccc3O[C@H]2[C@@H](CO)O1)NCc1ccc2c(c1)OCO2 | i | / | -0.5 | 2 | 5 | 4.1 | / | / | /
C[C@H]1CN([C@@H](C)CO)C(=O)c2cccc(NC(=O)Nc3ccc4c(c3)OCO4)c2O[C@@H]1CN(C)S(=O)(=O)c1ccc(Cl)cc1 | i | / | 6.6 | -3 | -9 | 1.0 | / | / | /
Oc1ccc(NC(=S)Nc2ccc(F)cc2)cc1 | i | 0.68 | -0.6 | -4 | -1 | -2.5 | 98* | 0.8 | ?
COc1ccc(NC(=O)Cn2nnc(C(=O)NCc3ccc(C)cc3)c2N)cc1OC | i | 0.67 | -4.6 | 6 | 23 | 2.1 | 6 | 5.9 | /
O=S(=O)(Cc1ccc(Cl)cc1)Nc1ccc2c(c1)OCO2 | i | 0.65 | 2.1 | -13 | -10 | 0.5 | 70 | -5.1 | 3%&-2%
O=C(Cc1ccsc1)N1CCN(S(=O)(=O)c2cccc(F)c2)CC1 | i | 0.67 | -16 | 0 | 0 | 0.7 | / | -2.1 | 2%
CCOc1cc(/C=C2/SC(=S)N(Cc3ccccc3)C2=O)ccc1O | i | 0.69 | 14 | 3 | 5 | 0.5 | 2 | 38* | 6%
Cc1ccc(S(=O)(=O)CC(=O)NC(C)c2ccccc2)cc1 (centres undefined) | i | 0.71 | -1.1 | 5 | 11 | 0.3 | -1 | -0.5 | -5%
COc1ccc(-c2c(C)nn3c(NC4CCCC4)cc(C)nc23)cc1OC | i | 0.64 | 12 | -15 | -17 | -2.5 | / | 0.5 | -6%
CCCCNC(=O)CSc1nnc(Cc2ccccc2)n1CC | / | 0.69 | / | / | / | / | -8 | 1.6 | -3%
C=CCSc1ncccc1C(=O)NCc1ccc(C)cc1 | / | 0.68 | / | / | / | / | -12 | -1.9 | -1%
COc1cc(C(=O)Nc2ncccc2C)ccc1OCC(=O)N1CCOCC1 | i | 0.62 | -2.8 | 0 | 6 | -3.0 | -1 | -0.7 | -9%
C[C@@H]1CN([C@H](C)CO)C(=O)c2cc(C3=CCCCC3)cnc2O[C@H]1CN(C)Cc1ccccn1 | i | / | -1.6 | 3 | 6 | 0.3 | / | / | /
CCN(CC)c1ccc(/C=N/N2CCN(Cc3ccc(C)cc3)CC2)c(O)c1 | i | / | 18 | -18 | -18 | -4.5 | 59 | 2.0 | 3%
Cc1ccc(N=C(NO)c2nonc2N)cc1 | / | 0.65 | / | / | / | / | 92* | -1.0 | -1%
Cc1ccc(S(=O)(=O)c2cc3c(=O)n4ccccc4nc3n(CCc3ccccc3)c2=N)cc1 | i | 0.72 | -14 | 21 | 22 | 7.8 | 4 | -16 | /
COc1ccc(C(=O)OCC(=O)Nc2cccc(S(=O)(=O)NC3=NCCCCC3)c2)cc1[N+](=O)[O-] | i | 0.72 | 0.0 | -8 | 2 | -2.4 | / | 0.4 | /
CO[C@@H]1CN(C)C(=O)c2cc(NS(=O)(=O)c3cn(C)cn3)ccc2OC[C@H](C)N(CCC(F)(F)F)C[C@@H]1C | i | / | -2.6 | 1 | 0 | 0.9 | / | / | /
COc1ccc(CCNC(=O)C23CCC(C)(C(=O)C2=O)C3(C)C)cc1OC (centres undefined) | i | 0.67 | 0.6 | -8 | 0 | -0.7 | -4 | 2.9 | 3%
O=C(Cc1ccccc1)Nc1ccc(S(=O)(=O)N2CCOCC2)cc1 | i | 0.71 | 1.2 | 1 | 1 | 1.7 | 0 | -3.3 | /
COc1ccc(C(=O)Nc2ccc3c(c2)nc(CN2CCN(C(C)=O)CC2)n3C)cc1 | / | 0.74 | / | / | / | / | 1 | -2.3 | -3%
O=C(COC(=O)c1ccccc1O)Nc1cccc2ccccc12 | i | 0.73 | -2.6 | 3 | 5 | -2.4 | -4 | -0.9 | -11%
COc1ccc(C(=O)Nc2ccccc2)cc1S(=O)(=O)Nc1cc(C)on1 | / | 0.69 | / | / | / | / | / | -0.5 | 2%
Cc1cc(OCC(=O)Nc2cc(S(=O)(=O)N3CCOCC3)ccc2N2CCCC2)ccc1C(C)C | i | 0.74 | 0.5 | 6 | 16 | 2.5 | -6 | -3.6 | 6%
CCCCN(CCCC)CCNC(=O)CSCc1ccc(C)cc1 | / | 0.69 | 4.9 | 5 | -7 | -10 | / | -2.3 | 7%
O=C(COC(=O)c1ccc[nH]c1=O)Nc1ccc(S(=O)(=O)N2CCCC2)cc1 | i | 0.66 | ? | -8 | 4 | 0.4 | 1 | -3.3 | 5%
O=C1c2ccccc2CSc2c(O)cccc21 | i | 0.63 | -0.6 | -31* | -12* | 2.6* | 80* | -3.7 | /
COc1ccc(CN2CC3(CN(C(=O)C4CCC4)C3)c3c(n(C)c4cc(OC)ccc34)[C@H]2CO)cc1 | i | / | 1.3 | -2 | -8 | 4.3 | / | / | /
C[C@H]1CN([C@@H](C)CO)C(=O)c2cc(-c3cccc(F)c3)cnc2O[C@H]1CN(C)C(=O)c1cnccn1 | i | / | -2.4&-2.0&-5.1 | 6&5 | 8&4 | -3.2&0.3 | / | -1.1 | 4%
CC1CC(C)CN(C(=O)COC(=O)c2ccc(Cl)nc2)C1 (centres undefined) | i | 0.63 | -0.1 | 1 | 6 | -0.6 | / | -1.5 | 0%
COCc1cc(=O)n2c(-c3ccc(C)cc3)n[nH]c2n1 | i | 0.75 | 4.7 | 4 | -1 | 0.8 | / | 3.1 | 14%
CCc1nc2c(OCCC3CCCCC3)cccn2c1N(C)C(=O)COc1ccccc1 | i | / | 10 | / | / | / | / | 0.1 | /
C[C@@H]1CN[C@H](CCO)/C1=C\c1ccccc1 | i | 0.65 | 3.2 | 19 | 3 | 0.5 | / | 1.8 | 10%
COc1ccc(Br)cc1S(=O)(=O)NCCc1cccs1 | i | 0.66 | -9.3 | -4 | -21 | 0.0 | -11 | 0.3 | /
O=C(O)C1=CC2C=C(Cl)C=CC2OC1=O (centres undefined) | i | / | -1.6 | 6 | 9 | -1.6 | / | 6.6 | -2%
CCN1C(=O)[C@H]2[C@@H](c3ccc(-c4cccc(Cl)c4)cc3)N3CCCC[C@@]3(C(=O)OC)[C@H]2C1=O | i | / | 5.0 | 8 | -5 | -5.3 | / | 2.4 | /
Cc1cc(NCCCN)nc(-c2ccccc2O)n1 | / | 0.68 | / | / | / | / | -5 | -0.2 | 0%
O=[N+]([O-])c1ccc(OCCN2CCNCC2)cc1 | i | / | -0.4 | 3 | 6 | 1.5 | -5 | -0.8 | -6%
O=C(N/N=C/c1cccs1)c1cccc2cc[nH]c12 | i | / | 6.8 | -7 | -7 | 12 | 3 | 0.3 | -3%
CCOC(=O)C1CCCN(C(=O)c2cn(CC(C)C)c(=O)c3cc(OC)c(OC)cc23)C1 (centres undefined) | / | 0.65 | / | / | / | / | -5 | -1.2 | 20%
O=C(COc1ccccc1[N+](=O)[O-])Nc1cccnc1 | i | 0.64 | -1.1 | 24 | 14 | 0.7 | 60 | -1.0 | -3%
Cc1nc2c(-c3ccc(F)cc3)c(C)[nH]n2c(=O)c1Cl | i | 0.64 | 3.9 | -23* | -10* | -5.5* | 2 | -6.2 | 3%
C#CCN(C[C@H]1[C@H](OC(=O)Nc2c(C)noc2C)[C@H](OC(=O)Nc2c(C)noc2C)C[C@H]2C(=O)N(c3ccccc3)C(=O)[C@@H]12)S(=O)(=O)c1ccc(C)cc1 | i | / | -2.0 | 6 | 3 | -8.3 | / | 0.5 | /
O=S(=O)(c1ccc(F)cc1)N1CCCCN2[C@H](CO)[C@@H](c3ccc(C#CC4CC4)cc3)[C@@H]2C1 | i | / | -1.6 | 8 | -3 | -1.9 | / | / | /
C#CCOCCOCCOCCNc1nc(N2CCN(C(=O)[C@H](CC(N)=O)n3cc(C(N)[C@H](C)CC)nn3)CC2)nc(N2CCN(C(=O)[C@H](CC(N)=O)n3cc(C(N)[C@@H](C)CC)nn3)CC2)n1 (some centres undefined) | i | / | 3.3 | 8 | 8 | 2.6 | 1 | 0.6 | /
CS(=O)(=O)Nc1ccc2c(c1)[C@H]1C[C@H](CC(=O)NCc3ccccc3F)O[C@@H](CO)[C@H]1O2 | i | / | -1.9 | 2 | 1 | -3.0 | / | / | /
O=C(c1ccccn1)N1CC2(C1)[C@H](c1ccccc1)[C@@H](CO)N2Cc1ccc(Cl)cc1 | i | / | -0.5 | -5 | -7 | 6.0 | / | / | /
Cc1ccc2cc(C#N)c(NCCNC(=S)NCCCN3CCOCC3)nc2c1 | i | 0.65 | 0.8 | -2 | 7 | 7.3 | 17 | 11 | 2%
OC(CNCc1ccccc1)c1ccccc1 (centres undefined) | i | 0.69 | 1.6 | 9 | 11 | 1.3 | 0 | -3.3 | -7%
CCc1nc2c(OCc3ccccc3C)cccn2c1N(C)C(=O)C1CC1 | i | / | 0.5 | 1 | 5 | 3.7 | / | -1.3 | /
CCN(CC)C(=O)C[n+]1cccc(/C=N/O)c1 | i | / | -1.6 | 15 | 16 | 1.6 | -34 | -6.2 | 2%
N#Cc1c2c(nc(N)c1-c1ccccc1)CCCCC2 | / | 0.69 | / | / | / | / | -8 | -0.9 | 24%
O=C(NN1C(=O)/C(=C/c2cccc(O)c2)SC1=S)c1ccccc1O | i | 0.72 | -2.2 | 2 | 0 | 4.7 | 99* | 2.7 | /
COc1cc(C2NC(=O)N(C)C(C)=C2C(=O)OCc2ccccc2)cc(Br)c1O (centres undefined) | i | 0.6 | 1.9 | -2 | 4 | -0.2 | 18 | 3.0 | /
CS(=O)(=O)Nc1ccccc1C(=O)N1CCCC1 | / | 0.78 | / | / | / | / | -6 | 2.5 | ?

Record cards, from the list above:
Listed for N#Cc1c2c(nc(N)c1-c1ccccc1)CCCCC2 → FGF22 binding: /; Ecoli growth: 0.69; MLL AF4-AF9 inh: /; Ecoli rRNA inh: /; Ecoli rRNA inh OD600: /; Ecoli rRNA inh RFP: /; ALR H2O2 inh: -8; HNF4A DNA FP: -0.9; Vif A3G: 24%
Listed for CS(=O)(=O)Nc1ccccc1C(=O)N1CCCC1 → FGF22 binding: /; Ecoli growth: 0.78; MLL AF4-AF9 inh: /; Ecoli rRNA inh: /; Ecoli rRNA inh OD600: /; Ecoli rRNA inh RFP: /; ALR H2O2 inh: -6; HNF4A DNA FP: 2.5; Vif A3G: ?
Listed for CCc1nc2c(OCc3ccccc3C)cccn2c1N(C)C(=O)C1CC1 → FGF22 binding: i; Ecoli growth: /; MLL AF4-AF9 inh: 0.5; Ecoli rRNA inh: 1; Ecoli rRNA inh OD600: 5; Ecoli rRNA inh RFP: 3.7; ALR H2O2 inh: /; HNF4A DNA FP: -1.3; Vif A3G: /
